# Compound activity as filed in PubChem.
# NOMO-1 viab: STK33 inhibitor candidate reducing NOMO-1 cell viability | inhibition, % (concentration not given with the values) | AID 2330 | hit rate 7.5% among 37,000 | NOMO-1 AML viability, CellTiter-Glo luminescence, 72 h;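 active means most replicates above 80%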;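 further: wells of about 30 µL received 25 nL stock; 0% = median of vehicle wells and 100% = reference inhibitor level; the first replicate is given; inactives centre near 10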
# * hit, by the source's call. The list is partial, so the mix of outcomes need not match the whole.
No. | Compound | NOMO-1 viab
1 | C[C@@H]1CN([C@@H](C)CO)C(=O)Cc2cc(NC(=O)c3ccncc3)ccc2O[C@@H]1CN(C)Cc1ccc(C(=O)Nc2ccccc2N)cc1 | 65
2 | Cc1ccc(S(=O)(=O)N(C)C[C@H]2Oc3c(NC(=O)C4CC4)cccc3C(=O)N([C@H](C)CO)C[C@@H]2C)cc1 | 20
3 | COC(=O)c1ccccc1NC(=O)c1ccc(NC(=O)CSc2ccc(Cl)cc2)cc1 | -2
4 | COc1ccc(S(=O)(=O)Nc2ccc3c(c2)CC(=O)N([C@@H](C)CO)C[C@H](C)[C@@H](CN(C)C(=O)Nc2ccc4c(c2)OCO4)O3)cc1 | -7
5 | CC(NS(=O)(=O)c1ccc(C(C)(C)C)cc1)c1ccccc1 (stereo unspecified) | -27
6 | O=C(CSc1nnc(-c2ccc([N+](=O)[O-])cc2)n1-c1ccccc1)Nc1ccc(F)cc1 | 16
7 | CS(=O)(=O)N(CC(=O)Nc1ccc2ccccc2c1)c1cc(Cl)c(Cl)cc1Cl | 17
8 | C[C@@H]1CN([C@H](C)CO)C(=O)c2cc(NC(=O)Nc3ccc(F)cc3)ccc2O[C@H]1CN(C)S(=O)(=O)c1ccc(F)cc1 | -13
9 | COc1ccc(NC(=O)Nc2ccc3c(c2)C(=O)N([C@@H](C)CO)C[C@H](C)[C@H](CN(C)Cc2ccc(Cl)c(Cl)c2)O3)cc1 | 104*
10 | COc1ccc(NC(=O)CSc2nnc(-c3ccc(NC(=O)c4ccc(C)cc4)cc3)n2C)cc1Cl | 50
11 | COc1ccc(S(=O)(=O)N(C)C[C@H]2OCCCC[C@@H](C)Oc3ccc(NC(=O)Nc4ccc(C(F)(F)F)cc4)cc3C(=O)N([C@H](C)CO)C[C@@H]2C)cc1 | 63
12 | C[C@@H]1CN([C@H](C)CO)C(=O)c2cc(NC(=O)Cc3cn(C)c4ccccc34)ccc2O[C@H]1CN(C)S(=O)(=O)c1ccc(F)cc1 | -8
13 | COc1c(NC(=O)N(C)C)csc1Cl | -10
14 | O=C(CSc1nc(-c2ccccc2)cc(C(F)(F)F)n1)N1CCCc2ccccc21 | 17
15 | C[C@@H]1CN([C@H](C)CO)C(=O)c2cccc(NC(=O)Nc3ccc(C(F)(F)F)cc3)c2O[C@@H]1CN(C)S(C)(=O)=O | 18
16 | C[C@H](CO)N1C[C@H](C)[C@H](CN(C)S(C)(=O)=O)Oc2ccc(NC(=O)Cc3cn(C)c4ccccc34)cc2C1=O | 18
17 | Cc1ccc2nc(-c3ccc(C)c(NC(=O)COc4ccc([N+](=O)[O-])cc4)c3)oc2c1 | 10
18 | O=C(CSc1nc2ccccc2nc1N1CCOCC1)N1CCC2(CC1)OCCO2 | 18
19 | CCOC(=O)/C(=C\Nc1ccc(F)c(Cl)c1)S(=O)(=O)c1ccc(Cl)cc1 | 39
20 | CC(=O)Nc1ccc(OCC(O)Cn2nc(C)nc2C)cc1 (stereo unspecified) | -20
21 | O=C(Nc1ccc(Cl)c(C(F)(F)F)c1)C(Cc1ccccc1)N1C(=O)C2CCCCC2C1=O (stereo unspecified) | -6
22 | OC1c2ccccc2-c2c3c(cc4c2C1NCC4)OCO3 (stereo unspecified) | 65
23 | COc1ccc(NC(=O)Nc2ccc3c(c2)C(=O)N([C@H](C)CO)C[C@H](C)[C@@H](CN(C)C(=O)Nc2c(C)noc2C)O3)cc1 | 12
24 | Cc1noc(C)c1NC(=O)Nc1cccc2c1O[C@H](CN(C)CC1CC1)[C@@H](C)CN([C@@H](C)CO)C2=O | -8
25 | COc1ccc(NC(=O)Nc2ccc3c(c2)C(=O)N([C@H](C)CO)C[C@H](C)[C@H](CN(C)C(=O)Nc2ccc(F)cc2)O3)cc1 | 3
26 | COc1ccc(NC(=O)Nc2ccc3c(c2)C(=O)N([C@H](C)CO)C[C@@H](C)[C@H](CN(C)S(=O)(=O)c2cccs2)O3)cc1 | 0
27 | Cc1ccc(S(=O)(=O)Nc2cccc3c2O[C@H](CN(C)CC2CCCCC2)[C@H](C)CN([C@H](C)CO)C3=O)cc1 | 28
28 | O=C1CSC(c2ccccc2)N1C1CCCCC1 (stereo unspecified) | 26
29 | CC1(C)CC(NC(=O)C(=O)NCC2COc3ccccc3O2)CC(C)(C)N1 (stereo unspecified) | -24
30 | COc1ccc(S(=O)(=O)Nc2cccc3c2O[C@@H](CN(C)Cc2ccc4c(c2)OCO4)[C@@H](C)CN([C@@H](C)CO)C3=O)cc1 | 7
31 | C[C@@H]1CN([C@H](C)CO)C(=O)c2cc(NC(=O)CCN3CCOCC3)ccc2O[C@@H]1CN(C)S(C)(=O)=O | 15
32 | O=C(Cn1c(=O)oc2ccccc21)Nc1ccc(S(=O)(=O)N2CCCCC2)cc1 | 20
33 | Cc1noc(C)c1NC(=O)N(C)C[C@@H]1Oc2c(NC(=O)Nc3cccc4ccccc34)cccc2C(=O)N([C@H](C)CO)C[C@H]1C | 18
34 | C[C@@H]1CN([C@H](C)CO)C(=O)c2cccc(NC(=O)c3nc4ccccc4s3)c2O[C@@H]1CN(C)S(=O)(=O)c1cn(C)cn1 | 8
35 | CC1(C)CC[C@@]2(C(=O)O)C(C1)C1=CCC3[C@@]4(C)CC[C@H](O)C(C)(C)C4CC[C@@]3(C)[C@]1(C)C[C@H]2O (stereo partly specified) | 108*
36 | C[C@H](CO)N1C[C@H](C)[C@H](CN(C)C(=O)Nc2ccc3c(c2)OCO3)Oc2ccc(NS(=O)(=O)c3ccccc3)cc2CC1=O | 0
37 | O=C1c2ccccc2O[C@@H](c2ccc(Cl)cc2)[C@@H]1O | 114*
38 | C[C@@H]1CN([C@@H](C)CO)C(=O)c2cc(NS(=O)(=O)c3cn(C)cn3)ccc2O[C@@H]1CN(C)Cc1ccccc1 | -1
39 | Cc1cccc(OCC(=O)Nc2cccc(-c3nc4ccccc4s3)c2)c1C | -5
40 | COCCNS(=O)(=O)c1ccc(Cl)c(Cl)c1OC | -1

# In a second layout: two of the compounds above.
(39) Cc1cccc(OCC(=O)Nc2cccc(-c3nc4ccccc4s3)c2)c1C
  NOMO-1 viab: -5
(40) COCCNS(=O)(=O)c1ccc(Cl)c(Cl)c1OC
  NOMO-1 viab: -1

# (cont.)
No. | Compound | NOMO-1 viab
41 | COC(=O)CN(c1ccc2c(c1)OCCO2)S(C)(=O)=O | 46
42 | CC(C)S(=O)(=O)c1cscc1N1C(=O)c2ccccc2C1=O | -4
43 | CCN(CC)C(=S)Oc1ccc(C#N)cc1 | 13
44 | C[C@@H]1CCCCO[C@@H](CN(C)S(=O)(=O)c2ccc(F)cc2)[C@@H](C)CN([C@H](C)CO)C(=O)c2cc(NC(=O)C3CCCCC3)ccc2O1 | 24
45 | Cc1ccc(S(=O)(=O)CCSc2sc(C#N)c3c2C(=O)CC(C)(C)C3)cc1 | 94*
46 | Cc1ccc(-c2cc(C(=O)Nc3sc(C)c(-c4ccccc4)c3C(N)=O)c3ccccc3n2)o1 | 62
47 | NC(=O)CN1CCN(CCN2C(=O)c3cccc4cccc(c34)C2=O)CC1 | 31
48 | O=C(O)CCC(=O)Nc1ccc(NC(=O)c2ccccc2)c(Cl)c1 | 26
49 | Cc1noc(C)c1NC(=O)N(C)C[C@@H]1Oc2ccc(NC(=O)CCC(F)(F)F)cc2C(=O)N([C@@H](C)CO)C[C@H]1C | 1
50 | OCc1cc2c([nH]c3ccccc32)c(C(O)CO)n1 (stereo unspecified) | -4

# Shown field by field: 4 of the compounds above.
42. CC(C)S(=O)(=O)c1cscc1N1C(=O)c2ccccc2C1=O
  NOMO-1 viab = -4
44. C[C@@H]1CCCCO[C@@H](CN(C)S(=O)(=O)c2ccc(F)cc2)[C@@H](C)CN([C@H](C)CO)C(=O)c2cc(NC(=O)C3CCCCC3)ccc2O1
  NOMO-1 viab = 24
49. Cc1noc(C)c1NC(=O)N(C)C[C@@H]1Oc2ccc(NC(=O)CCC(F)(F)F)cc2C(=O)N([C@@H](C)CO)C[C@H]1C
  NOMO-1 viab = 1
46. Cc1ccc(-c2cc(C(=O)Nc3sc(C)c(-c4ccccc4)c3C(N)=O)c3ccccc3n2)o1
  NOMO-1 viab = 62

# Going on with the list:
No. | Compound | NOMO-1 viab
51 | C[C@@H]1CN([C@@H](C)CO)C(=O)c2cc(NS(=O)(=O)c3cn(C)cn3)ccc2O[C@H]1CN(C)S(=O)(=O)c1ccccc1 | -12
52 | O=c1[nH]cnc2c1cnn2Cc1ccc(Cl)cc1 | 0
53 | COc1cccc(C(=O)COc2ccc(NC(=O)c3ccccc3Cl)cc2)c1 | -1
54 | CC1=CC(C)C2(COC(=O)NC3CCCCC3)COC3(CCCC3)C1C2C (stereo unspecified) | 113*
55 | C[C@H]1CN([C@@H](C)CO)C(=O)c2cc(NC(=O)NC3CCCCC3)ccc2O[C@H]1CN(C)S(C)(=O)=O | 20
56 | Oc1c(C(Nc2ccccn2)c2ccccn2)cc(Cl)c2cccnc12 (stereo unspecified) | 112*
57 | COc1ccc(NC(=O)Nc2ccc3c(c2)C(=O)N([C@@H](C)CO)C[C@@H](C)[C@@H](CN(C)C(=O)NC(C)C)O3)cc1 | -6
58 | COc1ccc(NC(=O)Nc2ccc3c(c2)C(=O)N([C@H](C)CO)C[C@H](C)[C@@H](CN(C)Cc2ccc(C(F)(F)F)cc2)O3)cc1 | 107*
59 | C[C@H](CO)N1C[C@H](C)[C@H](CN(C)S(=O)(=O)c2cn(C)cn2)Oc2ccc(NC(=O)Nc3ccccc3)cc2C1=O | -20
60 | CCC(=O)N1CCN(c2ccc(Cl)cc2NC(=O)COc2cc(C)c(Cl)c(C)c2)CC1 | 48
61 | C[C@@H]1CCCCO[C@H](CN(C)S(=O)(=O)c2ccccc2)[C@@H](C)CN([C@H](C)CO)C(=O)c2cc(NC(=O)c3ccccc3)ccc2O1 | 4
62 | COc1ccc(NC(=O)N(C)C[C@@H]2Oc3ccc(N(C)C)cc3C(=O)N([C@H](C)CO)C[C@@H]2C)cc1 | 8
63 | C[C@H](CO)N1C[C@H](C)[C@H](CN(C)Cc2ccc(C(=O)O)cc2)Oc2c(NC(=O)Nc3cccc4ccccc34)cccc2C1=O | 35
64 | CCOC(=O)COc1cccc(-c2nc3ccccc3s2)c1 | 18
65 | CCc1ccccc1NC(=O)CSc1nnc(N)s1 | 35
66 | CC(C)NC(=O)Nc1ccc2c(c1)CC(=O)N([C@@H](C)CO)C[C@H](C)[C@@H](CN(C)S(=O)(=O)c1ccccc1)O2 | -11
67 | COc1ccccc1NC(=O)CSc1nnc(-c2ccc(F)cc2)n1C | 1
68 | C(=Nc1cccc2ccccc12)c1c[nH]c2ccccc12 | 72
69 | COc1ccc(NC(=O)c2cccc(NC(=O)C3C4CC5OC(=O)C3C5C4)c2)c(OC)c1 (stereo unspecified) | -15
70 | C[C@H](CO)N1C[C@H](C)[C@H](CN(C)Cc2ccc3c(c2)OCO3)Oc2ccc(NC(=O)c3ccncc3)cc2C1=O | 12
71 | COc1ccc(NC(=O)N(C)C[C@@H]2Oc3c(NS(=O)(=O)c4ccc(F)cc4)cccc3C(=O)N([C@H](C)CO)C[C@H]2C)cc1 | -18
72 | O=C(CSc1nc2ccccc2c(=O)n1CC1CCCO1)c1ccc(Br)cc1 (stereo unspecified) | 14
73 | Cc1[nH]c2ccccc2c1C(=O)CSc1n[nH]c(N)n1 | -6
74 | COc1ccc(S(=O)(=O)Nc2ccc3c(c2)C(=O)N([C@H](C)CO)C[C@H](C)[C@@H](CN(C)CC2CC2)O3)cc1 | 14
75 | C[C@H]1CN([C@@H](C)CO)C(=O)c2cccc(NS(=O)(=O)c3ccccc3)c2O[C@@H]1CN(C)S(=O)(=O)c1cccs1 | -6
76 | C[C@@H]1CN([C@@H](C)CO)C(=O)c2cccc(NC(=O)C3CCOCC3)c2O[C@H]1CN(C)S(C)(=O)=O | -5
77 | C[C@@H]1CN([C@H](C)CO)C(=O)c2cccc(NS(=O)(=O)c3cn(C)cn3)c2O[C@H]1CN(C)Cc1ccc(Cl)c(Cl)c1 | -10
78 | NC(=O)CSc1nnnn1-c1cccc(O)c1 | -9
79 | C[C@H]1CN([C@@H](C)CO)C(=O)c2cccc(NC(=O)c3cnccn3)c2O[C@H]1CN(C)S(=O)(=O)c1ccc(F)cc1 | 20
80 | C[C@@H]1CN([C@@H](C)CO)C(=O)Cc2cc(NC(=O)CCC(F)(F)F)ccc2O[C@@H]1CN(C)C(=O)Nc1ccccc1 | -14
81 | COc1ccc(S(=O)(=O)N(C)C[C@H]2Oc3c(NC(=O)Nc4ccccc4)cccc3C(=O)N([C@H](C)CO)C[C@@H]2C)cc1 | 19
82 | COC(=O)CCS(=O)(=O)c1cccc2c(S(=O)(=O)CCC(=O)OC)cccc12 | 124*
83 | COc1ccc(S(=O)(=O)N(C)C[C@H]2Oc3c(NC(=O)Nc4ccc(F)cc4)cccc3C(=O)N([C@H](C)CO)C[C@@H]2C)cc1 | 7
84 | COc1ccc(/C=N/C2=NNC(=O)C(CC(=O)O)S2)cc1 (stereo unspecified) | 8
85 | C[C@@H]1CN([C@@H](C)CO)C(=O)c2cc(NC(=O)Nc3ccccc3)ccc2O[C@@H]1CN(C)S(=O)(=O)c1ccc(F)cc1 | 1
86 | O=C(NC(C(=O)c1ccccc1)n1cnccc1=O)c1ccccc1 (stereo unspecified) | 19
87 | CNC[C@@H]1Oc2ccc(NC(=O)NC(C)C)cc2CC(=O)N([C@@H](C)CO)C[C@@H]1C | -4
88 | C[C@H]1CN([C@@H](C)CO)C(=O)Cc2cc(NS(=O)(=O)c3cn(C)cn3)ccc2O[C@@H]1CN(C)Cc1ccc(C(F)(F)F)cc1 | 0
89 | CC1(C)Cc2nc3sc4c(SCC(=O)N5CCOCC5)ncnc4c3cc2CO1 | -10
90 | Cc1ccc(-c2noc(CN(C(C)C)S(=O)(=O)c3ccccc3)n2)cc1 | 35
91 | Cc1noc(C)c1NC(=O)N(C)C[C@@H]1Oc2ccc(NC(=O)Nc3ccc(F)cc3)cc2C(=O)N([C@@H](C)CO)C[C@@H]1C | 28
92 | Nc1c(O)cccc1C(=O)O | 5
93 | C[C@H](CO)N1C[C@H](C)[C@@H](CN(C)S(=O)(=O)c2cn(C)cn2)Oc2ccc(NC(=O)Nc3ccc4c(c3)OCO4)cc2C1=O | 0
94 | Cc1noc(C)c1S(=O)(=O)Nc1ccc2c(c1)CC(=O)N([C@@H](C)CO)C[C@H](C)[C@@H](CN(C)C(=O)NC1CCCCC1)O2 | -9
95 | O=C(NC(OCc1ccccc1)(C(F)(F)F)C(F)(F)F)c1ccccc1 | 2
